MgrA-DNA mod: modulators of Staphylococcus aureus MgrA DNA binding; fluorescence polarization; inhibition, %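 (about 10 µg/mL by stock and volumes)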; actives 0.13% (n = 84,000);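 active = above 50% in either of two replicates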;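 also: 0% = protein plus DNA without compound and 100% = DNA alone without protein; higher means less MgrA bound to DNA so lower polarization; one replicate is shown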
S aureus helic: blocks Staphylococcus aureus DNA helicase; purified S. aureus helicase, fluorescence unwinding assay; about half of the hits fall short of the stated cut; inhibition, %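 (tested at about 80 µM)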; actives 0.05% (n = 120,000);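 active = both duplicates at 50% or more, or one of them with a favoured structure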;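 also: 0% = mean of negative control wells and 100% = mean of positive control wells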
* hit, by the source's call; x = not tested or not shown; & = joins results of further samples.

SMILES	MgrA-DNA mod	S aureus helic
CCc1ccc2[nH]c(=O)c(CNC3CCCC3)cc2c1	3.0	1.0
CSc1nc(C)cc(OCCNS(=O)(=O)c2ccc(C)cc2)n1	x	-16.0
CC(C)(C)NS(=O)(=O)c1ccc(-c2nnc(SCC(=O)c3ccc(F)cc3)o2)cc1	-4.0	12.0
OC[C@H]1O[C@@H](Oc2ccccc2)[C@H](O)[C@@H](O)[C@@H]1O	x	12.0
O=C(Sc1cccs1)C1COc2ccccc2O1 (stereo not drawn)	-5.8	x
C=CCn1c(Cc2ccc(OC)cc2)nnc1SC(C)C(=O)Nc1nnc(C)s1 (stereo not drawn)	-2.8	1.0
O=C(O)CCC(=O)c1ccc(I)cc1	0.2	5.0
CC1CN(Cc2nc3c([nH]2)c(=O)[nH]c(=O)n3C)CC(C)O1 (stereo not drawn)	-0.6	-8.0
Cc1cccc(CCNC(=O)C2CCCN(c3cnccn3)C2)c1 (stereo not drawn)	x	-20.0
O=C(O)CN1C(=O)c2ccc(Br)cc2C1=O	1.2	-18.0
NCC1CC2CCC1C2 (stereo not drawn)	0.0	10.0
O=S(=O)(c1cccc2nonc12)N1CCCN(c2nccc(C(F)(F)F)n2)CC1	0.3	x
CC1(C)C2CC[C@](C)(C2)C1NC(=O)c1ccc(Cl)cc1Cl (stereo partly drawn)	-1.7	x
CC(C)(Oc1ccc(C(N)=O)cc1)C(=O)O	-1.1	x
CCSc1nc(N)c(C#N)c(CC)c1C#N	x	13.0
O=C(c1cc(-c2cccc(O)c2)on1)N1CCCC1	x	1.0
Cn1c(C(C#N)C(=O)c2cccs2)nc2ccccc21 (stereo not drawn)	-0.8	-25.0
CC(=O)c1ccc(-c2cccs2)s1	0.9	x
CC(CCC(=O)O)C1CCC2C3CCC4C[C@H](O)CCC4(C)C3CC(=O)C12C (stereo partly drawn)	-1.4	-20.0
CC(C)(C)C1CCC(C(=O)OCC(=O)Nc2ccc(C(N)=O)cc2)CC1 (stereo not drawn)	1.8	13.0
COC(=O)c1cc(NS(=O)(=O)Cc2ccccc2)cc(C(=O)OC)c1	-1.5	7.0
O=C(OCCOc1ccc(Br)cc1)c1cnccn1	x	8.0
CC1(c2ccc(Cl)cc2Cl)NC(=O)N(CC#N)C1=O (stereo not drawn)	x	-3.0
COc1cc(C(=O)Nc2cccc(-c3nc4ccccc4[nH]3)c2)ccc1OC(C)=O	x	10.0

Record cards, from the list above.
Shown for `COC(=O)c1cc(NS(=O)(=O)Cc2ccccc2)cc(C(=O)OC)c1` : MgrA-DNA mod = -1.5; S aureus helic = 7.0
Shown for `CC(C)(C)C1CCC(C(=O)OCC(=O)Nc2ccc(C(N)=O)cc2)CC1` (stereo not drawn) : MgrA-DNA mod = 1.8; S aureus helic = 13.0
Shown for `COc1cc(C(=O)Nc2cccc(-c3nc4ccccc4[nH]3)c2)ccc1OC(C)=O` : MgrA-DNA mod = x; S aureus helic = 10.0

(list continues)
SMILES	MgrA-DNA mod	S aureus helic
O=c1cc(O)c2c(=O)n(-c3ccccc3)c(-c3ccccc3)cc2o1	0.8	x
O=C(CCc1nc2sc3c(c2c(=O)[nH]1)CCCC3)N1CCN(Cc2ccc3c(c2)OCO3)CC1	x	-1.0
Cc1ccc(C(C)C)c(OCC(O)CN2CCN(C)CC2)c1 (stereo not drawn)	x	-9.0
Cc1noc(-c2ccccc2)c1NC(=O)N1CCN(C(c2ccccc2)c2ccccc2)CC1	-0.8	x
CCCCN1CN(CCc2cccc(Cl)c2)Cn2c1nc1ccccc12	x	-8.0
COC(=O)c1cn(NC(=O)CCC2CCCC2)c(=O)c2ccccc12	-0.1	11.0
O=C1CN(Cc2ccccc2)c2ccccc2N1	x	7.0
O=C(CCN1CCOCC1)N/N=C/c1cccnc1	x	6.0
CCN1CCN(CCCNC(=O)c2ccc3c(=O)n(CCc4ccccc4)c(=O)[nH]c3c2)CC1	x	13.0
O=C(OCC(=O)N1CCCc2ccccc21)c1n[nH]c2ccccc12	-2.4	-20.0
CCn1c(CCCNC(C)=O)nc2ccccc21	x	2.0
C=CCn1c(=S)[nH]c2sc3c(c2c1=O)CCN(C(=O)OCC)C3	x	9.0
COc1ccc(/C=C/C(=O)Nc2nc3ccc(S(C)(=O)=O)cc3s2)cc1Br	1.4	4.0
Cc1cc(=O)n(Cc2ccncc2)c2c1c(C)nn2C	x	-20.0
CCn1c(CN(CCO)CCO)nc2ccccc21	-0.2	-6.0
Cc1ccc(N(Cc2ccccc2O)C(=O)CN2C(=O)c3ccccc3S2(=O)=O)cc1	x	12.0
CN(C)C=Nc1cc(Cl)c(-n2cccc2)cc1Cl	-3.1	x
CCOC(=O)c1ccc(Oc2nc(NC(C)C)nc(NC(C)(C)C)n2)cc1	0.7	17.0
O=C(C1=C2SC=C(c3ccccc3)N2CCCC1)c1cccs1	x	-30.0
Nc1cccc(S(=O)(=O)c2cccc(N)c2)c1	x	32.0
CCn1c(O)c(C=Nc2ccccc2)oc1=S	6.0	-11.0
CC1CC(C)(C)CC2(C1)NC(=S)N(c1nc3ccccc3s1)N2 (stereo not drawn)	-1.1	16.0
COc1ccc(/C=N/c2oc(C)c(C)c2C#N)c(OC)c1	4.1	-4.0
Cc1ccc(/C=C2/SC(=S)N(CC(=O)Nc3nccs3)C2=O)cc1	x	-25.0
Cc1cn(CC(C)C)c(=O)n(CC(C)C)c1=O	1.6	14.0
O=C1CCCN2C(=N1)SC(=S)N2CN1CCN(Cc2ccccc2)CC1	x	6.0
CCOC(=O)c1nnn(-c2nonc2-n2cccc2)c1CN1CCOCC1	x	10.0
Cc1cc(N=Cc2c(O)n(-c3ccc4c(c3)OCO4)c(=O)c3ccccc23)ccn1	x	-77.0
Cn1c(N)c(S(=O)(=O)N2CCc3ccccc3C2)c(=O)n(C)c1=O	x	7.0
Cc1ccc(CCNC(=O)Cn2c(=O)oc3cc(S(=O)(=O)NC4CCCC4)ccc32)cc1	x	-25.0
CC(=O)Nc1cc(N)nnc1Cl	-1.9	-1.0
CC1CC(C)CN(C(=O)CSc2nnc(C(F)(F)F)n2C)C1 (stereo not drawn)	x	-2.0
CCOC(=O)c1n[nH]n2c1nc(=S)c1ccccc12	x	12.0
O=C(CN1C(=O)c2ccccc2S1(=O)=O)N1CCCC1	-1.5	-4.0
Cc1noc(C)c1COC(=O)/C=C/c1cn(-c2ccccc2)nc1-c1ccc2c(c1)OCCO2	x	4.0
O=C(C1CCC(CNS(=O)(=O)c2cccc3nsnc23)CC1)N1CCc2ccccc21 (stereo not drawn)	x	7.0

The closing 3 records of the section above are carried over, then new ones follow:
SMILES	MgrA-DNA mod	S aureus helic
O=C(CN1C(=O)c2ccccc2S1(=O)=O)N1CCCC1	-1.5	-4.0
Cc1noc(C)c1COC(=O)/C=C/c1cn(-c2ccccc2)nc1-c1ccc2c(c1)OCCO2	x	4.0
O=C(C1CCC(CNS(=O)(=O)c2cccc3nsnc23)CC1)N1CCc2ccccc21 (stereo not drawn)	x	7.0
CCN(CC)C(=O)c1cc(-c2ccc(OC)cc2)on1	x	-15.0
CCC(=O)Nc1ccc2nn(-c3ccc(OC)cc3)nc2c1	x	3.0
Cc1ccc(NCC(F)(F)C(F)F)cc1	x	-17.0
S=C(Nc1ccc2c(c1)OCCO2)Nc1ccc2c(c1)OCO2	0.2	-1.0
CCCCN1C(C)=CC(=C2C(=O)NC(=S)NC2=O)C=C1C	x	9.0
CNC(=S)N1C2CCC1CC(NC(=O)NC13CC4CC(CC(C4)C1)C3)C2 (stereo not drawn)	-0.8	18.0
CCN(CC)c1ccc(C2(C(F)(F)F)NN(c3ccccc3)C(N)=C2C#N)cc1 (stereo not drawn)	-5.6	-2.0
COc1ccc(/C=C/C(=O)Nc2nccs2)cc1OC	x	-45.0
CC(C)C(=O)Nc1nnc(SCC(=O)N2CCCc3ccccc32)s1	x	-19.0
CCOC(=O)c1ccc2c(c1)C(=O)N(c1cccc(C)c1)C2=O	x	-1.0
O=C(O)CCCN1C(=O)C2C3c4ccccc4C(c4ccccc43)C2C1=O (stereo not drawn)	x	5.0
CCN(CC)S(=O)(=O)c1ccc2c(c1)n(CC)c(=O)n2CC	-1.8	3.0
COC(=O)c1cc2cc(Br)ccc2s1	1.1	x
Cn1c2ccccc2c2nnc(SCC(=O)N=C3NC(=O)CS3)nc21	x	-13.0
CCCCNC(=O)c1c[nH]c2c(F)cccc2c1=O	-1.9	7.0
O=C(c1ncoc1-c1ccc2ccccc2c1)N1CCN(c2ccccc2)CC1	-1.3	1.0
[O-][n+]1c2c(nn1-c1ccccc1Cl)-c1nonc1CC2	-1.9	-3.0
O=C(Nc1cccc(Cl)c1)/C(=C\c1cccnc1)NC(=O)c1cccs1	2.5	-15.0
CC1(C)CNC(=O)CC(C)(C)N1	x	-28.0
S=c1[nH]nc(-c2ccncc2)n1/N=C/c1cccnc1	-1.4&0.3	20.0
COc1cccc(/C=C(/C(=O)O)c2ccccc2)c1	0.1	-10.0
COc1ccc(N2C(=O)CC(C(C)c3ccccc3)C2=O)cc1 (stereo not drawn)	x	29.0
CCOC(=O)/C(=C(/C)N)C1CC(=O)N(c2ccccc2)C1=O (stereo not drawn)	0.1	x
COc1cccc(Oc2ccc(C(F)(F)F)cc2Nc2nc3ccccc3o2)c1	x	9.0
O=S(=O)(c1cccc2c(I)cccc12)N1CCCNCC1	1.7	x
CN(C)S(=O)(=O)c1ccc(C(=O)OCC(=O)c2ccc3c(c2)NC(=O)CO3)cc1	x	-8.0
Cc1ccc(S(=O)(=O)N2CCN(S(=O)(=O)c3c(C)n[nH]c3C)CC2)cc1C	x	15.0
O=C(Nc1ccccc1)OCC1CCCN2CCCCC12 (stereo not drawn)	-0.5	x
COC(=O)Nc1ccc(S(=O)(=O)N2CCCc3ccccc32)cc1	1.6	4.0
COc1ccc(-c2nc3cc(NC(=O)c4ccccc4)ccc3o2)cc1	x	30.0
O=S(c1nc2ccccc2s1)N1CCOCC1 (stereo not drawn)	-1.6	9.0
COc1ccc(-c2nnn(CC(=O)N(CC(=O)NC3CCCC3)c3ccccc3)n2)cc1OC	-1.0	14.0
CCOC(=O)C1(c2csc(N)n2)COC(=O)C1 (stereo not drawn)	-0.6	8.0
CCOc1ccccc1OCCCC(=O)Nc1cccc(-n2cnnn2)c1C	x	0.0
Cc1nc2ccc(C(=O)O)cc2c2c1CC(C)S2 (stereo not drawn)	16.1	3.0
Cc1ccc2nc3c(cc2c1)c(=O)oc1ccccc13	x	6.0
O=C(C1CC(c2ccccc2F)=NO1)N1CCCc2ccccc21 (stereo not drawn)	x	-12.0
O=C(O)CCCN1C(=O)C2C3C=CC(C3)C2C1=O (stereo not drawn)	x	6.0
NC(=NC(=O)c1cccc(C(F)(F)F)c1)c1cccs1	-1.9	x
O=C(C1CCCN(S(=O)(=O)c2cnc[nH]2)C1)N1CCn2c1nc1ccccc12 (stereo not drawn)	x	4.0
CCCc1cc(=O)[nH]c(SCC(=O)NCCc2ccccc2)n1	0.2	4.0
COc1ccc(CC(=O)N2CCC3(CC2)Nc2ccccc2S(=O)(=O)N3)cc1	x	15.0
COc1ccc(NC(=O)c2ccco2)cc1NC(=O)Cc1ccccc1	0.2	-1.0
CC(C)C1C(=O)Nc2ccc(S(=O)(=O)NCCc3ccccc3)cc21 (stereo not drawn)	x	6.0
O=C1Nc2ccc(S(=O)(=O)NCc3ccccn3)c3cccc1c23	x	4.0
CC1CCCCC1N1CN=C(Nc2nc3ccccc3s2)NC1 (stereo not drawn)	x	-26.0
CC(Oc1ccccc1)C(=O)N1CCN=C1SCc1ccccc1 (stereo not drawn)	0.1	13.0
COc1cc(-c2nc3ccccc3c(=O)n2NC(=O)Cn2nc(C)c([N+](=O)[O-])c2C)cc(OC)c1OC	-0.1	x
O=C(Oc1ccccc1)Oc1ccc2oc(=O)sc2c1	-0.8	14.0
Cc1cc(=O)n(Cc2ccccc2)c(=O)n1Cc1ccccc1	-2.0	4.0
CS(=O)(=O)c1sc(C(=O)Sc2ccccc2)c2c1C=CCC2	3.3	x
O=C(CCC(=O)N1CCSc2ccccc21)NC1CCCC1	x	33.0
CC(C)(C#N)NCc1ccco1	x	-12.0
O=C(Cn1c(=O)oc2ccccc21)NC1CCCc2ccccc21 (stereo not drawn)	x	6.0
Cc1cccc(CCNC(=O)C2CCN(S(=O)(=O)c3ccc4[nH]c(=O)ccc4c3)CC2)c1	1.7	-18.0
Cc1c(Cl)cccc1-n1ncnc1-c1ccc(N(C)C)cc1	x	-21.0
Cc1nn(C)c(NC(=O)c2ccc(Cl)cc2Cl)c1Br	-2.3	x
O=C(CCCN1C(=O)CCC1=O)Nc1ccc2c(c1)OCCO2	5.8	8.0
O=C(c1cnc2sccn2c1=O)N(Cc1ccccc1)c1ccccn1	x	18.0
CCCC(=O)Oc1ccc(N(C(=O)CCC)S(=O)(=O)c2cccs2)cc1	x	-12.0

As entered above:
Cc1cc(=O)n(Cc2ccccc2)c(=O)n1Cc1ccccc1 @ MgrA-DNA mod: -2.0
CS(=O)(=O)c1sc(C(=O)Sc2ccccc2)c2c1C=CCC2 @ MgrA-DNA mod: 3.3
O=C(CCC(=O)N1CCSc2ccccc21)NC1CCCC1 @ S aureus helic: 33.0
Cc1nn(C)c(NC(=O)c2ccc(Cl)cc2Cl)c1Br @ MgrA-DNA mod: -2.3
CCCC(=O)Oc1ccc(N(C(=O)CCC)S(=O)(=O)c2cccs2)cc1 @ S aureus helic: -12.0

Going on with the list:
SMILES	MgrA-DNA mod	S aureus helic
CN(C)S(=O)(=O)c1cc(C(=O)O)c(N2CCOCC2)cc1Cl	x	5.0
Cc1cccc(OCCCn2c(=O)sc3ccccc32)c1	0.7	8.0
Cc1n[nH]c(C)c1CC(=O)NCCC1=CCCCC1	x	-1.0
CCOC(=O)c1c(CC(C#N)(c2ccccc2)c2ccccc2)oc2ccc(OC)cc12	-0.8	6.0
COc1cc(C(=O)OCC(=O)c2cc(C)n(C)c2C)cc(NC(=O)c2ccco2)c1OC	x	-8.0
CC(C)[N+]1(C)C2CCC1CC(OC(=O)C(CO)c1ccccc1)C2 (stereo not drawn)	0.2	x
CNc1cc(CS(=O)c2ccccc2)nc(-c2ccccc2)n1 (stereo not drawn)	2.0	x

High-throughput results as filed in PubChem.

Some of the compounds tested; the hit share may differ from the screen's.
